Assay outcomes deposited in PubChem by Emory University Molecular Libraries Screening Center.
Measles inh = inhibitors of measles virus growth in cells, primary screen, measles RdRp inhibitor project, cell-based, single point, HTS; z-score (no concentration beside the values); 33,000 tested, 0.1% active; infected Vero cells, GFP fluorescence, 64 h; stronger effect = lower value;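 active = z-score under -3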;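 note: score is relative to mean and SD of the compound wells of a plate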
Numbers without * were called inactive.

structure | Measles inh
CCOC(=O)c1sc2nc(CC(=O)OC)nc(Nc3cc(C)ccc3OC)c2c1C | 0.34
O=C(CNC(=O)c1ccccc1)NC1(C(=O)NC2CCCC2)CCCCC1 | -1.1
C=CCNc1ccc2c3c(cccc13)C(=O)N(C)C2=O | 8.6
O=C(COc1ccccc1)Nc1c2c(nn1-c1ccc(F)cc1)CSC2 | -1.5
CN(C)CCNC(=O)c1cc(Sc2cccc(Cl)c2)nc2ccccc12 | 0.36
COc1cc(NC(=O)c2cc([N+](=O)[O-])ccc2N2CCCCCC2)c2ncccc2c1 | -1.8
CCN1CCN(C(=O)c2ccc(Sc3ccc(Cl)cc3)c(NC(C)=O)c2)CC1 | -1.8
Cc1ccc(N2CCN(C(=O)c3sc4ncn(Cc5ccccc5F)c(=O)c4c3C)CC2C)cc1 (centres undefined) | -0.69
O=C1CCC(=O)N1c1ccc(NCC2CCCO2)c([N+](=O)[O-])c1 (centres undefined) | 0.24
CC(C)c1c(O)nc(SCC(=O)N2CCCCCC2)[nH]c1=O | -0.05
COC(=O)COc1nsnc1N1CCOCC1 | 2
COc1cc(OC)cc(C(=O)NCCc2cc3cc(C)c(C)cc3[nH]c2=O)c1 | 0.25
O=c1ccc(=O)n(-c2ccccc2Cl)[nH]1 | -0.73
COCCCNC(=O)c1cc(OC)c(OC)c(OC)c1 | -0.6
Cc1ccccc1Oc1nc2c(c(=O)n(C)c(=O)n2C)n1Cc1ccc(Br)cc1 | 0.02
CC(C)CCNC(=O)c1ccc2c(c1)N(Cc1ccc(Cl)cc1)C(=O)CS2 | 0.09
O=C(NCCc1ccccc1)C1CC(=O)N(Cc2ccc3c(c2)OCO3)C(=Nc2ccc(Cl)cc2)S1 (centres undefined) | 1.9
Cc1ccc(Nc2cc(C(=O)N3CCOCC3)c3ccccc3n2)cc1C | 0.31
O=C(Nc1ccc([N+](=O)[O-])cc1Br)C12CC3CC(CC(C3)C1)C2 | -1.1
COc1ccc2oc(=O)c(C(=O)C[n+]3ccc(C)cc3)cc2c1 | -0.56
Cc1ccc(/C(O)=C2\C(=O)C(=O)N(CC(C)O)C2c2cccc(O)c2)cc1 (centres undefined) | -0.06
CC12C=CC(O1)C1C(=O)N(c3ccc(Br)cc3[N+](=O)[O-])C(=O)C12 (centres undefined) | -1
COc1cccc(C2NC(=O)NC(C)=C2C(=O)OC2CCCCCC2)c1OC (centres undefined) | 0.2
O=C(CN1CCOCC1)N1CCN(c2ccccc2)CC1 | 0.94

Structural class, the compounds so far containing an NH in an aromatic ring
structure | Measles inh
CC(C)c1c(O)nc(SCC(=O)N2CCCCCC2)[nH]c1=O | -0.05
COc1cc(OC)cc(C(=O)NCCc2cc3cc(C)c(C)cc3[nH]c2=O)c1 | 0.25
O=c1ccc(=O)n(-c2ccccc2Cl)[nH]1 | -0.73

New compounds follow
structure | Measles inh
COc1ccc(NS(=O)(=O)c2cccc3c2C(=O)c2ccccc2C3=O)cc1 | -0.9
O=C(O)c1cc(N2C(=O)C3C4CC(C(Br)C4Br)C3C2=O)ccc1N1CCOCC1 (centres undefined) | -0.74
COc1ccc2nc(N3CCCC(C(=O)NCCc4ccc(Cl)cc4)C3)[nH]c2c1 (centres undefined) | -0.24
Cc1cc(C)c2oc(-c3ccc(NC(=O)c4ccc(I)cc4)cc3)nc2c1 | 0.42
O=C1CC(c2cccs2)CC2=C1C1c3ccccc3C(=O)N1c1ccccc1N2 (centres undefined) | -0.27
O=C(Nc1cccc2ccccc12)c1ccc(S(=O)(=O)N2CCOCC2)cc1 | -0.9
C#CCN1C(=O)C(O)(CC(=O)c2ccc(N(C)C)cc2)c2ccccc21 (centres undefined) | 0.64
CCn1c(=NC(=O)c2ccc(S(=O)(=O)N3CCOCC3)cc2)sc2ccccc21 | -0.83
COc1ccc(-c2nc3ncccn3c2Nc2ccc3c(c2)OCCO3)cc1 | -1
COc1ccccc1N1CCN(C(=O)NC2CCCCC2)CC1 | -0.24
CCCCN(CCCC)c1ncnc2c1cnn2-c1cccc(C)c1 | 1.3
O=C(c1ccc2c(=O)n(CCC3=CCCCC3)c(=S)[nH]c2c1)N1CCN(c2ccccn2)CC1 | -0.13
O=C(O)c1ccc(N2CCCC2=O)cc1O | 0.65
COc1ccc(C2=NN3C(C2)c2cc(Cl)ccc2OC3c2ccc(OC)c(OC)c2)cc1 (centres undefined) | 0.54
CC1=C(C(=O)Nc2ccc(F)cc2)C(c2ccc(N(C)C)cc2)C2=C(CC(C)(C)CC2=O)N1 (centres undefined) | -0.01
COc1ccc(C2C(=O)N(C3CCCCC3)CC(=O)N2Cc2cccs2)cc1 (centres undefined) | -1.2
CCC(C)OC(=O)C1=C(C)NC(=O)NC1c1cccc(OC)c1 (centres undefined) | 1.3
O=C(NC1CCCCCC1)c1ccc(Cn2c(=S)[nH]c3ccc(Br)cc3c2=O)cc1 | -0.12
COC(=O)c1c(N)sc2c1CCN(Cc1ccccc1)C2 | 0.08
O=C(O)CCC(=O)Nc1ccc(Oc2ccccc2)cc1 | 0.17
COc1cccc(NS(=O)(=O)c2cccnc2)c1 | 1.8
CCN(c1cccc(C)c1)S(=O)(=O)c1ccc2[nH]cc(C(=O)NCc3ccccc3OC)c(=O)c2c1 | -0.67
Clc1ccc(C2Oc3ccccc3C3CC(c4ccccc4)=NN32)cc1 (centres undefined) | 0.55
COC(=O)C1=C(C)NC2=C(C(=O)CCC2)C1c1cc(OC)c(OC)cc1OC (centres undefined) | 0.17
Cc1ccc(OCCSc2ncnc3nc[nH]c23)cc1 | -0.59
CC(C)N1C(=O)C2ON(c3ccccc3)C(c3ccc([N+](=O)[O-])cc3)C2C1=O (centres undefined) | 0.92
Cc1ccc(C2CC(C(F)(F)F)n3ncc(C(=O)Nc4ccc(C)c(C)c4)c3N2)cc1 (centres undefined) | 0.39
COc1cc(C(=O)Nc2ccc(Cl)cn2)cc(OC)c1OC | -0.11
Cc1ccc(C(=O)N2N=C3CCCCC3C2(O)C(F)(F)F)o1 (centres undefined) | 0.56
NC(=O)c1c(NC(=O)CSc2nc(-c3cccs3)cc(C(F)(F)F)n2)sc2c1CCC2 | -0.24
COc1ccc(C2NC(=S)NC(C)=C2C(=O)Nc2ccc(F)cc2)c(OC)c1 (centres undefined) | 0.32
CC(C)(C)c1ccc(-c2cc3ncc(-c4ccccc4)c(N)n3n2)cc1 | 0.75
Cc1ccc(Cl)cc1N1CCN(C(=O)CCNC(=O)Cn2ccc3ccccc3c2=O)CC1 | -0.13
COc1ccc(-c2nnc(Sc3nc4ccccc4o3)c3ccccc23)cc1 | 0.43
Cc1ccc(S(=O)(=O)c2nc(N)sc2Cl)cc1 | 0.46
Cc1oc2ccc(OC(=O)c3ccc([N+](=O)[O-])cc3)cc2c1C(=O)OC(C)C | -0.09
CCCN(CCC)C(=O)Cn1c(=O)n(-c2ccccc2)c(=O)c2c3c(sc21)CCCC3 | -0.25
CCOc1ccc(C(=O)Nc2ccc3oc(-c4ccc(I)cc4)nc3c2)cc1Br | 0.33
COc1ccc(OC)c(NC(=O)c2c(NCc3cccnc3)sc3c2CCCC3)c1 | -0.82
Cc1ccc(C2=NN(CC(=O)N3CCN(C)CC3)C(=O)CC2)cc1 | -0.02
CCCCOC(=O)c1cccc(NC(=O)c2ccccc2OC)c1 | -0.23
CC(=O)c1c2c3c(cccc3n(C)c1=O)C(=O)c1ccccc1-2 | 0.06
COc1ccc(OC)c(-n2c(=S)[nH]c3cc(C(=O)NCc4cccnc4)ccc3c2=O)c1 | -1.2
CCOC(=O)C1CCN(CC(=O)N2CCCc3c2c(=O)oc2ccc(OC(C)=O)cc32)CC1 | -0.54
CC1CC(N(C(=O)C2CC2)c2ccccc2)c2ccccc2N1C(=O)C1CC1 (centres undefined) | -0.47
Cc1nnc(NC(=O)CS(=O)(=O)c2cn(Cc3ccccc3Cl)c3ccccc23)s1 | 0.95
COc1ccc(C2=NN(C(=O)c3ccccc3Br)C(c3cccc([N+](=O)[O-])c3)C2)cc1 (centres undefined) | -1.2
O=C(CNC(=O)c1cc2c(=O)n3ccccc3nc2s1)c1ccccc1 | -0.95

Next records follow:
SMILES	Measles inh
CCN(C(=O)Cn1c(=O)n(-c2ccc(OC)c(OC)c2)c(=O)c2ccccc21)c1cccc(C)c1	-0.29
Cc1cc(C)cc(N2C(=O)CSC2c2ccc(Br)cc2)c1 (centres undefined)	-0.96
CCc1nc(-c2ccc(OC)cc2)cc2cc(OC)c(OC)cc12	-1.4
CCOC(=O)CN1C(=S)N=C(Nc2ccccc2)C12CCCCC2	-0.49
O=C(NC1CCSC1=O)c1ccc([N+](=O)[O-])o1 (centres undefined)	-0.17
COC(=O)CSc1nc2ccccc2nc1Cc1ccc(F)cc1	1
O=C(Nc1ccc(I)cc1)c1cccc(C(=O)Nc2ccc(I)cc2)n1	1.3
CCOc1ccc(C2C(N3C(=O)c4ccc([N+](=O)[O-])cc4C3=O)C(=O)N2c2ccc(Cl)cc2)cc1 (centres undefined)	-0.49
CC1CCC(NC(=O)c2cc(=O)n(Cc3ccc(Cl)cc3)c3ccccc23)CC1 (centres undefined)	-0.37
CCCc1[nH]n(-c2nc3ccccc3s2)c(=O)c1C(C)=Nc1ccc(C)cc1	-0.54
CCOC(=O)C1=CN(c2cc(C)cc(C)c2)C=C(C(=O)OCC)C1c1cccc(C(F)(F)F)c1	-0.15
O=C(c1ccccc1)N1CCN(c2nc(-c3ccccc3)c3ccccc3n2)CC1	0.05
O=C(c1cc(-c2ccc(Cl)s2)nc2ccccc12)N1CCOCC1	1.3
O=C(Nc1ccc(-c2nc3cc(Cl)ccc3o2)cc1)c1cc([N+](=O)[O-])ccc1Cl	1.2
O=C(CSCc1cccc(F)c1)NC1CCCCCC1	0.23
COC(=O)CCCNC(=O)Cn1cnc2sc3c(c2c1=O)CCCC3	0.72
COc1ccc(NC(=O)c2cc(OC)c(OC)c(OC)c2)cc1	1
COC(=O)c1ccc(C(=O)OCCCc2nc3ccc(N)cc3[nH]2)cc1	0.78
CC(C)c1ccc(-c2csc(NC(=O)c3cccc4ccccc34)n2)cc1	0.4
COc1ccc(CN2CN(C(C)(C)C)CSC2=S)cc1	-0.11
CCCN1CCN(c2cc(Nc3ccc4c(c3)OCCO4)c3c4c(onc24)-c2ccccc2C3=O)CC1	-0.34
Cc1ccc2c(c1)C(c1ccccc1)N(C(=O)c1cccc(C(F)(F)F)c1)CC(=O)N2 (centres undefined)	-0.01
COc1ccc(S(=O)(=O)CCC(=O)N(C)c2cc(C)ccc2C)cc1	1.6
O=C(OCC(=O)c1ccc([N+](=O)[O-])cc1)C(=O)OCC(=O)c1ccc([N+](=O)[O-])cc1	-1.3
CC1CCC2=NN(C(=O)COc3ccccc3)C(O)(C(F)(F)F)C2C1 (centres undefined)	-0.28
Cc1c(N)c(=O)n(-c2ccccc2)n1C	0.28
CC(=O)Nc1ccc2nc(NC(=O)COc3ccc(Cl)cc3)sc2c1	0.95
CCOC(=O)CSc1nnc(C(F)(F)F)o1	1.8
COc1ccc(-n2nc3c(c2NC(=O)C(C)C)CS(=O)C3)cc1 (centres undefined)	-0.59
Cc1ccc(-c2csc(NC(=O)N3CCOCC3)n2)cc1	-0.53
COc1ccc(-c2cc(-c3ccccc3)nc(SCC(=O)Nc3nccs3)c2C#N)cc1	0.27
CCOC(=O)c1c(NC(=O)C2C3C=CC(C3)C2C(=O)O)sc2c1CC(C)CC2 (centres undefined)	-0.75

Of the compounds above, these contain bromine.
SMILES	Measles inh
Cc1ccccc1Oc1nc2c(c(=O)n(C)c(=O)n2C)n1Cc1ccc(Br)cc1	0.02
O=C(Nc1ccc([N+](=O)[O-])cc1Br)C12CC3CC(CC(C3)C1)C2	-1.1
CC12C=CC(O1)C1C(=O)N(c3ccc(Br)cc3[N+](=O)[O-])C(=O)C12 (centres undefined)	-1
O=C(O)c1cc(N2C(=O)C3C4CC(C(Br)C4Br)C3C2=O)ccc1N1CCOCC1 (centres undefined)	-0.74
O=C(NC1CCCCCC1)c1ccc(Cn2c(=S)[nH]c3ccc(Br)cc3c2=O)cc1	-0.12
CCOc1ccc(C(=O)Nc2ccc3oc(-c4ccc(I)cc4)nc3c2)cc1Br	0.33
COc1ccc(C2=NN(C(=O)c3ccccc3Br)C(c3cccc([N+](=O)[O-])c3)C2)cc1 (centres undefined)	-1.2
Cc1cc(C)cc(N2C(=O)CSC2c2ccc(Br)cc2)c1 (centres undefined)	-0.96

(continued)
SMILES	Measles inh
CC1CCCCN1S(=O)(=O)c1ccc(C(=O)Nc2nc3c(s2)COc2ccccc2-3)cc1 (centres undefined)	-0.16
CCOC(=O)C1=C(N)N(c2cccc(C(F)(F)F)c2)C2=C(C(=O)CCC2)C1c1ccc(F)cc1 (centres undefined)	0.64
COC(=O)c1ccccc1NC(=O)c1cnc(N2CCN(c3ccccn3)CC2)c2ccccc12	-0.61
CN(Cc1ccccc1)C1CCN(Cc2ccncc2)CC1	-0.12
CC1=C(C(=O)N2CCCCC2)C(c2ccc3c(c2)OCO3)C2=C(CCCC2=O)N1 (centres undefined)	0.29
COc1ccc2c(c1)sc(=NC(=O)c1ccc(S(=O)(=O)N3CCCC(C)C3)cc1)n2C (centres undefined)	-1.5
FC(F)(F)c1ccccc1CN1CCN(C2CCCCC2)CC1	0.86
Cc1ccc(C2=CC(c3ccco3)n3ncnc3N2)cc1 (centres undefined)	1.5
CC1CCC(C(=O)NC(C(=O)NCc2ccccn2)C(C)C)CC1 (centres undefined)	-3.1*
Cc1cc2nc(Nc3nc(-c4ccccc4)cc(=O)[nH]3)nc(C)c2cc1C	0.2
O=C(O)CCCC(=O)N1N=C(c2ccc(Br)cc2)CC1c1ccc(Br)cc1 (centres undefined)	1.9
FC(F)(F)c1cc(-c2ccco2)nc(-n2cc(Cl)cn2)n1	-0.2
COC(=O)C(C)Sc1nc2c(c(=O)n(C)c(=O)n2C)n1CCC(C)C (centres undefined)	-0.03
C=CCn1c(SCCCO)nc2c1c(=O)[nH]c(=O)n2C	-0.15
CCOc1cc(C=C2N=C(SC)SC2=O)cc(Cl)c1OCc1ccccc1	-0.43
CC(=O)c1c(C)[nH]c(C(=O)N2CCC(C)CC2)c1C	-2

These rows are one share of the data. The share of hits here may be higher or lower than overall.
